Screening results deposited in PubChem BioAssay by Southern Research Institute.
Mtb growth: Mycobacterium tuberculosis H37Rv growth inhibition, cell based, confirmatory dose response (AID 1949). one-dose inhibition, % at 10 µg/mL; IC50 in µg/mL for titrated hits. most inactive calls were filed without a number and no value below 0 was filed. 100,000 tested, 1.6% active;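 active = confirmed in a dose series; inconclusive = about 50% or more but not retested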;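 also: bacteria grown 7 days with compound before Alamar blue readout; 0% = untreated bacteria and 100% = reference antibiotic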
Numbers without * were called inactive. These rows are one share of the data (hit frequency here may not be typical).

`CN(c1ccc(C(=O)Nc2ccccc2-c2ccccc2)cc1)S(=O)(=O)c1ccccc1` gave Mtb growth inactive.
CC(C)C(=O)Nc1ccc(NC(=O)c2ccc(-c3ccc(Cl)cc3)o2)cc1 was read as Mtb growth inactive.
CS(=O)(=O)Nc1ccc(C(=O)Nc2ccc(I)cc2)cc1 was read as Mtb growth 1.5%.
Screening COc1cc([N+](=O)[O-])ccc1NC(=S)N1CCN(S(=O)(=O)c2ccc(Cl)cc2)CC1 returned Mtb growth inactive.
`CCC(=O)Nc1ccc(-c2nnc(SCC(=O)Nc3ccc(F)cc3)n2C)cc1` gave Mtb growth inactive.
O=C(NCCCN=C1NS(=O)(=O)c2ccccc21)c1ccc(F)cc1 was read as Mtb growth inactive.
For COC(=O)c1ccc(C=Nn2c(-c3ccc(Cl)cc3Cl)n[nH]c2=S)cc1 the results were Mtb growth inactive.
`S=C(NCCn1cc(Cl)cn1)NCc1ccc(Cl)cc1` gave Mtb growth inactive.
For CCOC(=O)c1ccc(NC(=O)C2(c3ccc([N+](=O)[O-])cc3)CCCC2)cc1 the results were Mtb growth inconclusive.
Cc1ccc(S(=O)(=O)N(C)CC(=O)N2CCCCCC2)cc1 was read as Mtb growth inactive.
`CC1CCN(C(=S)NC(=O)c2ccc(Cl)cc2)CC1` gave Mtb growth 0.35µg/mL*.
For O=C(COc1ccc(Cl)cc1Cl)N1CCC(CN2C(=O)c3cccc4cccc(c34)C2=O)CC1 the results were Mtb growth 13.4%.
`COc1ccc(C(=O)NCC(=O)NC2=NCCS2)cc1` gave Mtb growth inactive.
For Cc1cc(C(=O)Nc2ccc(S(=O)(=O)Nc3nccs3)cc2)cs1 the results were Mtb growth inactive.
Screening COc1ccc(S(=O)(=O)N(CC(=O)O)c2ccccc2)cc1OC returned Mtb growth inactive.
Screening Cc1ccc(NC(=O)COc2ccc3c4c(c(=O)oc3c2)CCCCC4)cc1 returned Mtb growth inactive.
`Cc1ccc2cccc(OCCCOc3ccccc3OC(C)C)c2n1` gave Mtb growth 15.7%.
`CCOc1ccc(N(CC(=O)N2CCCC2)S(=O)(=O)c2ccc(C)cc2)cc1` gave Mtb growth inactive.
COC(=O)c1ccc(N2C(=O)CC(NCCN3CCOCC3)C2=O)cc1 (centres undefined) was read as Mtb growth inactive.
Screening COc1ccc(C(=O)Nc2ccc(S(=O)(=O)Nc3cc(C)nc(C)n3)cc2)cc1 returned Mtb growth inactive.
`CC(c1ccccc1)n1cnc2ccccc2c1=O` (centres undefined) gave Mtb growth inactive.
`COC(=O)c1ccc(C(=O)OC)c(NC(=O)C2CC2)c1` gave Mtb growth inactive.
For O=C(Nc1ccc(N2CCCCC2)cc1)c1sc2cc(Cl)ccc2c1Cl the results were Mtb growth 5.4%.
Screening CCn1c(Cc2ccccc2)nnc1SCC(=O)Nc1c(C)cc(I)cc1C returned Mtb growth inactive.
O=C(Nc1ccc(I)cc1C(F)(F)F)c1ccc2ccccc2c1 was read as Mtb growth inactive.
Screening COc1cccc(C2CC(C(F)(F)F)n3ncc(C(=O)NC4CCCCC4)c3N2)c1 (centres undefined) returned Mtb growth inactive.
Screening Cc1ccc(C(C)NC(=O)C2CCCO2)cc1C (centres undefined) returned Mtb growth inactive.
Screening O=C(OCc1cccc(Br)c1)c1ccccc1[N+](=O)[O-] returned Mtb growth inactive.
For CC(C)(O)C#Cc1ccc(C(=O)N2CCN(C/C=C/c3ccccc3)CC2)s1 the results were Mtb growth inactive.
Screening CCc1cccc(OCC(=O)NC(C)(C)C)c1 returned Mtb growth inactive.
COc1ccc(C(=O)Oc2ccc(Cl)cc2C(=S)N2CCOCC2)cc1OC was read as Mtb growth inactive.
For CCOC(=O)C(O)(c1ccc(NC(=O)C(C)(C)C)c(C)c1)C(F)(F)F (centres undefined) the results were Mtb growth inactive.
COc1ccc(N2CCN(C(=O)C3CCN(C(=O)c4cccc(Cl)c4)CC3)CC2)cc1 was read as Mtb growth inactive.
`Cc1nc(NNC(=O)c2ccc(Cl)cc2Cl)cc(-c2ccccc2)n1` gave Mtb growth 0.7%.
`CCc1ccc2[nH]c(C)c(CN(CC)Cc3ccccc3)c(=O)c2c1` gave Mtb growth 0.0%.
For C=CCn1c(SCC(=O)Nc2ccc(OC)cc2OC)nc2sc(CC)cc2c1=O the results were Mtb growth 5.5%.
For NC(=O)C1CCN(CC(=O)N2N=CCC2c2ccccc2)CC1 (centres undefined) the results were Mtb growth 4.9%.
For COc1ccc(C(=O)NNC(=O)C(C)(C)C)cc1I the results were Mtb growth 1.1%.
Screening Cc1cccc(C2(c3cccc(C)c3)CC2C(=O)N2CCCCC2)c1 (centres undefined) returned Mtb growth 0.1%.
For Cc1cc(I)ccc1NC(=O)c1ccc(OCc2ccccc2)cc1 the results were Mtb growth inactive.
`Cc1ccc(S(=O)(=O)CC(=O)c2ccc(Oc3ccc([N+](=O)[O-])cc3)cc2)cc1` gave Mtb growth inactive.
`CNc1cc(N2CCN(C(=O)c3cccs3)CC2)ccc1[N+](=O)[O-]` gave Mtb growth inactive.
Screening COc1ccccc1OCC(=O)Nc1cccc(N2Cc3ccccc3C2)c1 returned Mtb growth inactive.
Screening CCc1ccc(C(=O)NC(=S)Nc2ccc(N3CCOCC3)cc2)cc1 returned Mtb growth inactive.
Clc1ccc(-c2noc(-c3ccccc3I)n2)cc1 was read as Mtb growth inactive.
For O=S(=O)(Nc1cccnc1)c1ccc(Cl)c(Cl)c1Cl the results were Mtb growth inactive.
CCOC(=O)C1CCN(Cc2c(O)c3ccccc3oc2=O)CC1 was read as Mtb growth inactive.
`O=C(CSC1=NCCS1)N1CCN(c2ccccc2)CC1` gave Mtb growth inactive.
COc1ccccc1N1CCN(C(=O)Nc2ccccc2Cl)CC1 was read as Mtb growth inactive.
Screening Cc1ccc(N2C(=O)C3C4c5ccccc5C(C)(c5ccccc54)C3C2=O)c(C)c1 (centres undefined) returned Mtb growth 18.3%.
Screening Cc1cc(C(=O)NCc2cccs2)ccc1[N+](=O)[O-] returned Mtb growth 3.4%.
FC(F)(F)c1cccc(-n2cc(-c3ccccc3)c3c(NCc4cccnc4)ncnc32)c1 was read as Mtb growth 1.51µg/mL*.
`CN(C)CCNCCCOc1ccccc1C#N` gave Mtb growth inactive.
COc1cc(C2NC(=O)NC(c3ccccc3)=C2C(=O)c2ccccc2)cc(Cl)c1OC(C)C (centres undefined) was read as Mtb growth inactive.
`O=C(CSc1nnc(-c2ccc(Cl)cc2)n1-c1ccccc1)N1CCCCC1` gave Mtb growth inactive.
Cc1cc(N)n(-c2ccc(Oc3ccccc3)c(S(=O)(=O)O)c2)n1 was read as Mtb growth inactive.
`CCOc1cc2c(cc1/C=C(/C#N)c1ccc(C(=O)O)cc1)OCO2` gave Mtb growth inactive.
Screening CS(=O)(=O)N1CCC(C(=O)NCc2ccc3c(c2)OCO3)CC1 returned Mtb growth inactive.
`CCOC(=O)c1ccc(NC(=O)COc2ccc(C(=O)NC3CCCCC3)cc2)cc1` gave Mtb growth inactive.
Screening O=C(Oc1cccc2cccnc12)C(Cc1ccccc1)N1C(=O)C2C3CCC(C3)C2C1=O (centres undefined) returned Mtb growth 2.76µg/mL*.
For O=C(O)C(Oc1ccc2c3c(c(=O)oc2c1)CCC3)c1ccccc1 (centres undefined) the results were Mtb growth inactive.
For O=C(NCCN1CCN(C(=O)c2ccccc2Br)CC1)C(=O)Nc1ccc(Cl)cc1 the results were Mtb growth inactive.
For O=C(CC(C(=O)O)N1CCOCC1)Nc1ccc(Cl)cc1Cl (centres undefined) the results were Mtb growth inactive.
Screening O=C(Nc1ccncc1)c1cccs1 returned Mtb growth 1.6%.
Screening Cc1ccc(C(=O)NC(=S)Nc2cccc3cc(O)ccc23)c(Cl)c1 returned Mtb growth inactive.
CCn1c(SCC(=O)Nc2ccccc2)nnc1-c1ccc(Cl)cc1 was read as Mtb growth inactive.
For NC1=NC(=Nc2cccc(Cl)c2)c2ccccc21 the results were Mtb growth 4.5%.
Screening O=C(Nc1nccs1)c1ccc2c(c1)C(=O)N(Cc1cccnc1)C2=O returned Mtb growth inactive.
Screening CCOC(=O)c1sc2c(c1C)c(=O)nc1n2Cc2ccccc2-1 returned Mtb growth 3.6%.
COc1cccc(NC(=O)c2nc[nH]c2C(=O)Nc2ccccc2C)c1 was read as Mtb growth 0.2%.
`COC(=O)c1cc(NC(=S)N2CCN(C(=O)C3CCCO3)CC2)cc(C(=O)OC)c1` (centres undefined) gave Mtb growth inactive.
COc1ccc(C)cc1NC(=O)c1ccc(OCC(=O)Nc2cccc(Cl)c2C)cc1 was read as Mtb growth inactive.

Structures shown so far with a nitro group on carbon, in the order listed:
Screening COc1cc([N+](=O)[O-])ccc1NC(=S)N1CCN(S(=O)(=O)c2ccc(Cl)cc2)CC1 returned Mtb growth inactive.
For CCOC(=O)c1ccc(NC(=O)C2(c3ccc([N+](=O)[O-])cc3)CCCC2)cc1 the results were Mtb growth inconclusive.
Screening O=C(OCc1cccc(Br)c1)c1ccccc1[N+](=O)[O-] returned Mtb growth inactive.
`Cc1ccc(S(=O)(=O)CC(=O)c2ccc(Oc3ccc([N+](=O)[O-])cc3)cc2)cc1` gave Mtb growth inactive.
`CNc1cc(N2CCN(C(=O)c3cccs3)CC2)ccc1[N+](=O)[O-]` gave Mtb growth inactive.
Screening Cc1cc(C(=O)NCc2cccs2)ccc1[N+](=O)[O-] returned Mtb growth 3.4%.

(cont.)
`Cc1ccc(-c2cc(C(F)F)n3ncc(C(=O)NCCCN4CCOCC4)c3n2)cc1` gave Mtb growth 5.7%.
`Cc1ccc2nc(/C(C#N)=C/c3cc(C)c(C)cc3C)[nH]c2c1` gave Mtb growth inactive.
`COc1ccc(Br)cc1C(=O)Nc1ccc(CC(=O)O)cc1` gave Mtb growth 0.2%.
For O=C(COc1ccc(S(=O)(=O)N2CCCC2)cc1)NCC1CCCO1 (centres undefined) the results were Mtb growth inactive.
For CC(C)(C)c1cc(C(=O)NCc2cccnc2)ccn1 the results were Mtb growth inactive.
O=C(Cc1cccc2ccccc12)Nc1ccc(N2CCOCC2)cc1 was read as Mtb growth inactive.
`CN(c1cccc(NS(=O)(=O)c2ccc(Br)s2)c1)S(C)(=O)=O` gave Mtb growth inactive.
Screening CS(=O)(=O)N(CC(=O)N1CCc2ccccc2C1)C1CCCCC1 returned Mtb growth 5.4%.
COc1ccc(/C(N)=N/OC(=O)CCCc2ccccc2)cc1OC was read as Mtb growth 0.1%.
`Cc1ccc(C(=O)Nc2ccc(N3CCN(C)CC3)cc2)cc1Cl` gave Mtb growth 46.2µg/mL*.
For COC(=O)N1C2C=CC(C2)C1(C(F)(F)F)C(F)(F)F (centres undefined) the results were Mtb growth inactive.
C=CCSCC(=O)Oc1ccc(/C=N/n2cnnc2)cc1OC was read as Mtb growth inactive.
Screening COc1ccc(C(CC#N)C(C)C)cc1 (centres undefined) returned Mtb growth inactive.
Screening Cc1ccc2[nH]c(O)c(N=NC(=O)c3ccccc3Br)c2c1 returned Mtb growth 37.9%.
`Cc1nnc(NCCO)c2ccccc12` gave Mtb growth inactive.
`COc1ccc(Cl)cc1N(CC(=O)NCCCOC(C)C)S(C)(=O)=O` gave Mtb growth inactive.
CCOc1ccc2cc(S(=O)(=O)N3CCOCC3)ccc2c1 was read as Mtb growth inactive.
For CCCCc1nc2ccccc2c(=O)n1-c1ccc(C)cc1 the results were Mtb growth 4.9%.
`O=C(Nc1ccc2c(c1)OCCO2)c1ccc(Cl)c(S(=O)(=O)N2CCOCC2)c1` gave Mtb growth inactive.
CCC(C)c1ccc(NC(=S)Nc2ccccc2OC(F)F)cc1 (centres undefined) was read as Mtb growth inactive.
`COc1ccc(CC(=O)Nc2cccc(C(=O)O)c2)cc1OC` gave Mtb growth inactive.
For Cc1ccc(C(C)C)c(OCCCN2CCCCCC2)c1 the results were Mtb growth 2.1%.
COC(=O)NC1CSCC1OC(=O)c1ccc(Br)cc1 (centres undefined) was read as Mtb growth inactive.
Screening CS(=O)(=O)N(CC(=O)NCCSCc1ccccc1Cl)c1ccc(Cl)cc1 returned Mtb growth inactive.

Five compounds out of the list, arranged by formula weight, rising.
Screening COc1ccc(C(CC#N)C(C)C)cc1 (centres undefined) returned Mtb growth inactive.
For CCCCc1nc2ccccc2c(=O)n1-c1ccc(C)cc1 the results were Mtb growth 4.9%.
Screening Cc1ccc2[nH]c(O)c(N=NC(=O)c3ccccc3Br)c2c1 returned Mtb growth 37.9%.
`COc1ccc(Cl)cc1N(CC(=O)NCCCOC(C)C)S(C)(=O)=O` gave Mtb growth inactive.
`O=C(Nc1ccc2c(c1)OCCO2)c1ccc(Cl)c(S(=O)(=O)N2CCOCC2)c1` gave Mtb growth inactive.

The listing continues:
N#Cc1c(NC(=O)Cn2cnc3scc(-c4ccccc4)c3c2=O)sc2c1CCC2 was read as Mtb growth inactive.
`COc1ccc(C(=O)N2CCC(C(=O)N3CCN(c4ccccc4F)CC3)CC2)cc1` gave Mtb growth inactive.
For CCOC(=O)C(C)Oc1ccc2c(=O)c(Oc3cccc(OC)c3)coc2c1 (centres undefined) the results were Mtb growth inconclusive.
For COc1ccc(Cl)cc1NC(=O)CN(c1ccc(C(C)C)cc1)S(=O)(=O)c1ccccc1 the results were Mtb growth inactive.
`O=C(c1cc(F)c(F)cc1Cl)N1CCOCC1` gave Mtb growth inactive.
For Nc1nc2ccccc2n1CCOc1ccc(Cl)cc1Cl the results were Mtb growth 3.85µg/mL*.
`CCOc1cc(S(=O)(=O)Nc2ccccn2)ccc1Br` gave Mtb growth inactive.
For S=C(NCCc1ccccc1)N1CCc2ccccc2C1 the results were Mtb growth inactive.
COC(=O)c1ccc(Cl)c(NC(=O)CSCc2ccc(C)cc2)c1 was read as Mtb growth inactive.
Screening COC(=O)C1=C(C)N(C)C(=O)NC1c1cccc(O)c1Cl (centres undefined) returned Mtb growth inactive.
`COc1ccc(CCNC(=O)C2CCN(S(=O)(=O)c3ccccc3)CC2)cc1` gave Mtb growth 0.3%.
For CCn1c(SCC(=O)Nc2cccc(SC)c2)nnc1C(CC(C)C)NC(=O)c1ccc(Cl)cc1Cl (centres undefined) the results were Mtb growth 2.8%.
For CC(=O)c1ccc(N2CCN(C(=O)c3ccc(Cl)cc3Cl)CC2)c(F)c1 the results were Mtb growth 3.0%.
Cc1ccc(S(=O)(=O)N(CC(=O)Nc2cccnc2)c2ccccc2C)cc1 was read as Mtb growth inactive.
